Source: PubChem BioAssay
KCNQ2 enhance: KCNQ2 (rat) channel potentiation. O88943. CHO-K1 KCNQ2, FluxOR thallium flux fluorescence; active compounds read high. B-score at 10 µM. hit rate 0.54% among 310,000. AID 2239;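 active means fluorescence ratio B-score at least 3 SD of library B-scores, with initial fluorescence B-score within 3 SD, cut at about 5.3 in these data; same plate scores as AID 2156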;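 further: B-score of peak minus minimum over baseline fluorescence ratio after K+ and Tl+ stimulus; positive B-score means potentiation of KCNQ2 with more thallium influx and brighter signal; only the inactives scoring about 0 or higher are listed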
Target sequence (O88943 whole entry, looked up): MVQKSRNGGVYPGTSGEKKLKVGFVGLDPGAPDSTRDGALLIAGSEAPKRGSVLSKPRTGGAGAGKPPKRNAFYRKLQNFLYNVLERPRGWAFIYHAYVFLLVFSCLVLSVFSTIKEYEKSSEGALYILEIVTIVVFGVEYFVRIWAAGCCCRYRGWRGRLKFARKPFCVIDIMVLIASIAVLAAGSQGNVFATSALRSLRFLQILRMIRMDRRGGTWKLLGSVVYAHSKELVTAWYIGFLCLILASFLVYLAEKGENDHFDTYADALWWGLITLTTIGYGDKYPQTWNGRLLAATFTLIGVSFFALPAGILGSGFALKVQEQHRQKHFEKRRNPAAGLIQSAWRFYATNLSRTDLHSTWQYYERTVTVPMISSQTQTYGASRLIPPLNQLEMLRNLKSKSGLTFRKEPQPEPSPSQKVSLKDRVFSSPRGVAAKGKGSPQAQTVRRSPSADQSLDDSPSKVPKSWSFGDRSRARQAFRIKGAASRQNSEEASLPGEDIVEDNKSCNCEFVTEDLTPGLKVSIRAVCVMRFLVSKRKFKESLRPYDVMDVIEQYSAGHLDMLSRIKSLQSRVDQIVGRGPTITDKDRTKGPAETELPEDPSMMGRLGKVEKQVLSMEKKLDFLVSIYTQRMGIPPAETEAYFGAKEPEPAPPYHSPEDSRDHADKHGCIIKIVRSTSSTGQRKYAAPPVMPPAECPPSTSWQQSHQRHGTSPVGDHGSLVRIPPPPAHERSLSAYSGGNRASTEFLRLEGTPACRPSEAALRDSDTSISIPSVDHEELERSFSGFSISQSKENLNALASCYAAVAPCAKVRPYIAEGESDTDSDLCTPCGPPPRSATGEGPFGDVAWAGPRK
KCNQ2 enhance baseline: further read-out of KCNQ2 enhance, marked with its call; B-score; compound at 10 µM; measured here: initial fluorescence intensity artifact check;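 brightness before thallium and not channel activity; 0 = typical well and far values either way flag optical interference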
Numbers without * were called inactive. Not all compounds are listed (hit frequency here may not be typical).

no.	compound	KCNQ2 enhance	KCNQ2 enhance baseline
1	CCCN(CCC)CCNC(=O)C1c2ccccc2C(=O)N2CCc3ccccc3C12 (stereo not given)	0.25	-0.08
2	COc1cc2c(cc1OC)C(c1cc3cc4c(cc3[nH]c1=O)OCO4)N(C(=O)C(C)C)CC2 (stereo not given)	0.32	-0.07
3	Cc1oc2c(C)c(O)ccc2c(=O)c1-c1ccc2ccccc2n1	0.39	-0.07
4	CCC(c1nnc(SCC(=O)Nc2cc(S(C)(=O)=O)ccc2Cl)n1Cc1ccccc1)N(C)C (stereo not given)	0.96	-1.6
5	CC(OC(=O)c1cccs1)C(=O)NCc1cccs1 (stereo not given)	0.22	0.46
6	CCn1nnnc1SCCSc1nnnn1CC	0.14	1.1
7	CN(C)CCSc1nc(N)c2c3c(sc2n1)COC(C)(C)C3	1	-1.3
8	CC(C)C(c1nnnn1Cc1ccccc1)N1CCC(C(N)=O)CC1 (stereo not given)	0.36	0.32
9	CCCCCN(C(=O)CCC(=O)OCC(=O)N(C)Cc1ccccc1C)c1c(N)n(CCCC)c(=O)[nH]c1=O	0.85	-0.39
10	COC(=O)/C=C1\NCCNC1=O	0.42	-0.53
11	COc1ccc(N2CCN(C(=O)COC(=O)Cc3ccc(F)cc3)CC2)cc1	0.99	2.3
12	O=C(NCCN1CCCC1)c1ccc2c(c1)N(Cc1ccccc1)C(=O)c1ccccc1S2(=O)=O	0.58	0.19
13	CN1CCN(c2nc3c(c(=O)[nH]c(=O)n3C)n2CCCSc2ncccn2)CC1	0.71	0.03
14	CCOC(=O)C(=O)NC(C)c1ccccc1 (stereo not given)	1.3	-0.1
15	O=C(CCCSc1nc2ccccc2[nH]1)Nc1nnc(C2CC2)s1	0.29	0
16	Cc1cc(Nc2ccccc2N2CCOCC2)n2ncnc2n1	1.8	-0.8
17	CCc1ccc(N(CC(=O)N2CCOCC2)S(C)(=O)=O)cc1	0.9	2.5
18	CCCn1c(SCCC(=O)O)nc2ccccc21	0.51	1.1
19	CCOCCCn1c(=O)c2ccccc2n2c(=S)[nH]nc12	0.58	0.44
20	COc1ccc(Cn2c(=O)[nH]c3cc(C(=O)NC4CCCC4)ccc3c2=O)cc1	1.4	0.1
21	Cc1cccc(Oc2coc3cc(O)ccc3c2=O)c1	0.1	-0.17
22	O=[N+]([O-])c1ccc(O)c(C=Nc2cccc3ccccc23)c1	0.02	0.18
23	CCCCN1C(=O)Nc2ccccc2S1(=O)=O	0.69	-0.1
24	CCOc1ccc(S(=O)(=O)N(C)c2ccc(OCC(=O)NCc3cccnc3)cc2)cc1	0.34	-1
25	CCOC(=O)c1c(C)n(CC)c2c1cc(O)c1ccccc12	1.7	0.06
26	CCc1nnc(NC(=O)CCC(=O)NCCc2ccc(OC)c(OC)c2)s1	0.82	-3.1
27	O=C(C[n+]1ccc(C(=O)N/N=C/c2ccc(Cl)cc2Cl)cc1)c1ccccc1	0.88	-1.3
28	CCOC(=O)c1[nH]nc2c1C(=O)N(Cc1ccccc1)C2=O	0.01	0.53
29	CSc1nc2ccc(NS(=O)(=O)c3ccc4c(c3)OCCO4)cc2s1	0.02	-0.63
30	Cc1ncsc1CCSc1n[nH]c(=O)n1-c1ccccc1	0.7	-1.4

3 entries out of the list, ordered by count of non-hydrogen atoms, lowest first:
no.	compound	KCNQ2 enhance	KCNQ2 enhance baseline
23	CCCCN1C(=O)Nc2ccccc2S1(=O)=O	0.69	-0.1
6	CCn1nnnc1SCCSc1nnnn1CC	0.14	1.1
21	Cc1cccc(Oc2coc3cc(O)ccc3c2=O)c1	0.1	-0.17

The main list resumes, starting 4 compounds before the break.
no.	compound	KCNQ2 enhance	KCNQ2 enhance baseline
27	O=C(C[n+]1ccc(C(=O)N/N=C/c2ccc(Cl)cc2Cl)cc1)c1ccccc1	0.88	-1.3
28	CCOC(=O)c1[nH]nc2c1C(=O)N(Cc1ccccc1)C2=O	0.01	0.53
29	CSc1nc2ccc(NS(=O)(=O)c3ccc4c(c3)OCCO4)cc2s1	0.02	-0.63
30	Cc1ncsc1CCSc1n[nH]c(=O)n1-c1ccccc1	0.7	-1.4
31	COc1cc(NC(=O)CN2C(=O)CN(C)C2=O)c(C)cc1[N+](=O)[O-]	0.31	0.57
32	Cc1cnc(C(=O)OCC(=O)Nc2ccc(C)c(S(=O)(=O)N3CCCCC3)c2)cn1	0.1	-0.07
33	Cc1ccc(C2OC34CCCCCC3C(C#N)(C(=N)O4)C2(C#N)C#N)cc1 (stereo not given)	0.67	-2.3
34	C/C=C(\C)C(=O)N1CC2(CC(c3cccc(NC(=O)CCCCC)c3)=NO2)C[C@@H]1C(N)=O (stereo not given in full)	0.41	0.68
35	COCCN(C(=O)CSc1nc2nc(C)cc(C)n2n1)c1c(N)n(Cc2ccccc2)c(=O)[nH]c1=O	1.9	1.8
36	Cc1c(C(=O)N2CCOCC2)sc(NC(=O)C(C)C)c1C#N	0.44	1.6
37	N#CCSCC(=O)Nc1ccc(Cl)cc1	0.01	1.8
38	Cc1ccc(S(=O)(=O)c2ccccc2)cc1S	0.18	0
39	O=C(O)CCN1C(=O)c2ccc(NC(=O)CSc3ccc(Cl)cc3)cc2C1=O	1.3	-0.38
40	CCCc1nnc2n1N=C(c1ccc(C)cc1)CS2	0.37	-1.8
41	COc1ccc(/C=C2\SC(=O)N(CCNC(=O)Cc3coc4cc(C)ccc34)C2=O)cc1OC	0.04	0.61
42	CC(C)CN(C(=O)COC(=O)c1ccc([N+](=O)[O-])s1)c1c(N)n(Cc2ccccc2)c(=O)[nH]c1=O	1.2	-0.66
43	CCOc1ccc2oc(=O)cc(CN3CCN(Cc4ccccc4)CC3)c2c1	0.76	0.31
44	CCOc1ccc(S(=O)(=O)Nc2ccc(C(=O)N(C)CC(=O)Nc3ccc(OC)cc3)cc2)cc1	0.6	0.05
45	COC(=O)c1cc(NC2c3ccccc3C(=O)N2c2cccnc2)cc(C(=O)OC)c1 (stereo not given)	0.11	-1.4
46	Cc1ccccc1NC(=O)CC(=O)c1ccccc1	0.01	1
47	Cc1cc(NC(=O)Cn2cnc3c(cnn3C(C)(C)C)c2=O)no1	0.57	0.01
48	Cc1nc2ccccc2c(=O)n1N	0.94	0
49	CCOc1ccc(C)cc1S(=O)(=O)NC1CCCCCC1	0.01	-0.5
50	CCOc1ccccc1NC(=O)c1cc(C(=O)Nc2ccccc2OCC)cc(N2C(=O)CCC2=O)c1	2.1	-0.13
51	CCOC(=O)C1CCN(C(=O)c2cccnc2)CC1	1.3	0.82
52	CNCc1ccccc1Sc1ccc(OC)c(OC)c1	0.58	-1
53	Cc1cc(=O)oc(C)c1C(=O)N[C@@H]1CCCCNC1=O	0.46	-2
54	Cc1nc(-c2ccccn2)nc(N(C)c2ccccc2)c1Cl	0.77	-2
55	S=C(Nc1ccccc1)N1N=C(c2cccs2)CC1c1cccs1 (stereo not given)	0.06	-0.26
56	O=C(O)c1ccc2nc3c(nc2c1)-c1ccccc1C3=O	0.33	-1.2
57	O=C(Nc1cccnc1)c1cc(Cl)ccc1Cl	0.72	-1.1
58	CN1CCC(NC(=S)Nc2cccc([N+](=O)[O-])c2)CC1	1	-0.58
59	OCCN(Cc1ccccc1)CC1CC2C=CC1C2 (stereo not given)	0.14	-0.87
60	COc1cc2c(cc1OC)CN(CC(=O)Nc1ccc3c(c1)OCO3)CC2	1.3	0.6
61	CN(c1ccc(C(=O)NCc2ccc3c(c2)OCO3)cc1)S(=O)(=O)c1ccccc1	1.3	-0.03
62	Cc1cc(Br)ccc1NC(=O)CCN1C(=O)c2ccncc2C1=O	0.72	0.36
63	CCOC(=O)C1=C(c2ccccc2)NC(=S)NC1c1cccc([N+](=O)[O-])c1 (stereo not given)	0.81	-0.75
64	COc1ccc(CNC(=O)COC(=O)CCS(=O)(=O)c2ccc(C)cc2)cc1OC	0.97	-0.24
65	COC(C[C@@H](O)C[C@@H](O)[C@@H](C)OCc1ccccc1)OC	1	0.24
66	N/C(=N\OC(=O)CCN1C(=O)c2ccccc2C1=O)c1ccccn1	1.4	-2.4
67	CCC(CC)NC(=O)c1cccc(Oc2ccccc2)c1	0.87	-0.04
68	O=C(NCCC1=CCCCC1)NC1CCCCC1	0.21	-0.93
69	O=C(CCc1ccccc1)Nc1ccc(NC(=O)c2ccco2)nc1	0.45	-0.4
70	Nc1cc(Oc2ccc(Cl)cc2Cl)nc(N)n1	1.6	-0.56
71	Cc1cccc(C)c1NC(=O)CC(C)c1ccccc1 (stereo not given)	0.98	-0.71
72	O=c1c2ccccc2c(-c2n[nH]c(=S)o2)nn1Cc1ccccc1	3.1	-2
73	CCCCCn1c(SCC(=O)OCC)nc2cc(C(=O)N3CCC(C(N)=O)CC3)ccc2c1=O	0.32	-0.31
74	O=[N+]([O-])c1cccc2ccc(N3CCOCC3)nc12	1.5	-0.94
75	Nc1ccc(C2(c3ccc(N)cc3)OC(=O)c3ccccc32)cc1	2.2	-0.96
76	C=CCNC(=O)/C(C#N)=C/c1c(N2CCCCCC2)nc2ccccn2c1=O	1.7	-1.9
77	CC(=O)c1ccc(NC(=O)CN2CCCCCC2)cc1	2.5	0.28
78	Cn1c(CNS(=O)(=O)c2cccc(Cl)c2)cc(=O)n(C)c1=O	0.18	-0.26
79	Cc1ccc2nc3c(cc2c1)CN(Cc1ccco1)C(=NCC1CCCO1)S3 (stereo not given)	0.78	0.01
80	CC(=O)Nc1cccc(C(=O)N/N=C/c2ccc(F)cc2)c1	0.39	-0.04
81	O=C(/C=C/c1ccccc1)Nn1cnc2ccccc2c1=O	0.03	-1.6
82	O=C(Nc1ccc(N2CCN(c3ncccc3C(F)(F)F)CC2)nc1)c1cccs1	0.53	-0.05
83	COc1cc2c(=O)n(CCC(=O)NCC3CCCO3)c(=O)n(CC(=O)Nc3ccc(C)c(C)c3)c2cc1OC (stereo not given)	0.29	-0.02
84	O=C(O)c1cc([N+](=O)[O-])cc([N+](=O)[O-])c1N1CCN(c2cccc(C(F)(F)F)c2)CC1	0.01	1.5
85	O=C(CN1CCN(c2ccc(Cl)cc2[N+](=O)[O-])CC1)N1CCOCC1	0.68	-0.64
86	CCOC(=O)CC(NC(=O)Cn1nnc(-c2ccccc2F)n1)c1ccc(OC)cc1 (stereo not given)	0.53	-1.5
87	CC1CCCCC1NC(=O)Cn1nnc(-c2ccc(Cl)cc2)n1 (stereo not given)	0.02	-0.04
88	COc1ccc(N=C2SC(CC(=O)Nc3ccccc3)C(=O)N2CCN2CCOCC2)cc1 (stereo not given)	0.7	0.9
89	CCOC(=O)CNc1nc(Cl)nc(N2CCCCC2)n1	0.1	1.3
90	Cc1cc(-c2ccccc2C(=O)O)on1	0.05	-0.11

Additional compounds
no.	compound	KCNQ2 enhance	KCNQ2 enhance baseline
91	N#CC1(NC(=O)COC(=O)c2cc([N+](=O)[O-])ccc2N2CCCC2)CCCCC1	0.27	-1.6
92	O=C(O)c1cc(-c2ccccc2Cl)n(-c2cccc(Cl)c2)n1	0.12	-0.78
93	COC(=O)c1ccc(CN2[C@H](C(=O)OC)C[C@@]3(O)[C@H](O)[C@H](O)[C@H](O)C[C@@H]23)cc1	0.07	-1.7
94	O=C(CSC(=S)N1CCOCC1)Nc1ncc2c(n1)CCCC2=O	0.06	-1.4
95	CC/C(=N\NC(=O)c1ccc(N(C)C)cc1)c1ccccc1	0.36	0.4
96	Cc1noc(C)c1COc1ccc(C(=O)Nc2cccnc2)cc1	1.7	-0.5
97	Cn1c(N)c(C(c2ccccc2)c2c(N)n(C)c(=O)n(C)c2=O)c(=O)n(C)c1=O	0.1	-1.1
98	CCc1ccc(S(=O)(=O)NCCc2csc(C)n2)s1	0.37	-1.2
99	CC(=O)Nc1ccc(S(=O)(=O)N2CCSC2c2ccccc2)cc1 (stereo not given)	0.22	0.47
100	CC(C)C(=O)Nc1ccc(NC(=O)c2cc3ccccc3o2)cc1	0.29	1.6
101	COC(=O)c1sc(N/N=C/c2ccc(C(C)C)cc2)nc1C	2.3	0.2
102	O=C(O)/C=C/C(=O)NNC(=O)c1ccc(Br)cc1	0.9	-0.01
103	COc1ccc(Nc2ccc(C(F)(F)F)cc2[N+](=O)[O-])cn1	0.29	-0.27
104	Cc1ccc(C(=O)N(C)Cc2ccccc2)cc1S(=O)(=O)N1CCOCC1	1	0.9
105	CC(=O)c1sc(NC(=O)CSC(C)C(=O)Nc2cc(C)on2)nc1-c1ccccc1 (stereo not given)	0.46	0
106	CN(CC(=O)Nc1ccccc1Cl)C(=O)COc1cccc2c1OC(C)(C)C2	0.28	-0.74
107	O=C(O)C(c1ccccc1)N1C(=O)c2ccccc2C1=O (stereo not given)	0.75	-0.65
108	CN(C(=O)COc1ccccc1)c1nnc(-c2ccncc2)s1	0.22	-0.78
109	CC(=O)c1cccc(NC(=O)CCCNC(=O)c2ccc(Cl)cc2)c1	1.4	-0.42
110	O=C(CC1SC(N2CCCC2)=NC1=O)Nc1ccc(C(=O)N2CCN(c3cccc(Cl)c3)CC2)cc1 (stereo not given)	0.82	1.4
111	CN(C)C(=O)c1cn(-c2ccc(Cl)cc2)c(=O)c2ccccc12	0.14	-0.65
112	CCOC(=O)C(=CNc1ccc(C)cc1C)C(=O)OCC	0.03	0
113	CC1(C)Cc2c(c(-c3ccccc3)nc(N3CCCC3)c2C(N)=O)CO1	0.16	0.61
114	Cc1ccc(NC(=O)Nc2ccc3c(c2)N(C)C(=O)CS3)nc1	2.2	-2.5
115	C=CCn1c(CSc2nc3ccccc3s2)nnc1SCC(=O)NCc1ccco1	1.8	1.4
116	Cc1ccc(OCC(=O)Nc2ccc3c(c2)OCO3)c([N+](=O)[O-])n1	0.86	0.82
117	CCNC(=S)N/N=C(\C)c1ccc(Cl)s1	0.16	1.3
118	COc1ccc(OC)c(NC(=O)CSc2nc(=O)n(Cc3ccccn3)c3c2CCC3)c1	1.1	1.1
119	COc1cc(OC)c(OC)cc1CN1CCCC(C(=O)c2ccc3c(c2)OCO3)C1 (stereo not given)	1.5	0.38
